Screens as filed in PubChem BioAssay.
GLA inh pH 4.5: blocks human alpha-galactosidase A at pH 4.5; 230,000 tested, under 10 active; activity change, negative = inhibition, % at 105 µM; purified enzyme, 4-MU-alpha-Gal fluorescence, pH 4.5; AID 1467; inconclusive = small, poorly fitted or top-dose-only inhibition, or a rising curve; inactive = flat fitted curve, though single readings scatter; no compound was filed as active;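 further: 0% = full activity with enzyme and -100% = basal without enzyme; dose as in the result columns while the protocol names 77 µM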
Rango release inh: inhibitors of RanGTP-induced Rango-importin beta complex dissociation; O95149+P62826; Biochemical FRET Rango-importin beta, RanGTP-induced dissociation; Potency, µM (series often up to 46.1 µM), without a hit: at the highest dose activity change, negative = inhibition; 340,000 tested, 0.071% active; AID 540253; active means falling FRET ratio curve, often poorly fitted, with flat reads before Ran was added; inconclusive means other falling curves, or compound fluorescence or quenching; inactive means flat or rising ratio curve;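 further: potency means the concentration at half of the fitted maximal effect; % of control where 0% means no effect; nearly all actives have a fitted effect of over 45% in size; -100% = wells without RanGTP and RCC1; the record marks most hits as doubtful in a second field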
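Two FRET readings bracket the reaction: one 5 min after compound meets Rango–importin beta, another 45 min after RanGTP-RCC1 (0.6 uM Ran, 0.2 uM RCC1, 2 mM GTP) is added. Only the second defines inhibition.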
Rango-impB inh: inhibitors of Rango-importin beta complex formation; 340,000 tested, 0.031% active; Q14974; Potency, µM (top dose mostly 92.2 µM), for the others: at the highest dose inhibition of complex formation; Rango CFP/YFP FRET sensor + importin beta, 45 min; AID 540263; active = rising FRET ratio curve, often small or poorly fitted; inconclusive = mostly compound fluorescence or quenching in the first reads; inactive = flat curves in all reads;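 further: potency means the concentration at half of the fitted maximal effect; 0% = DMSO wells and 100% = buffer wells lacking importin beta; nearly all actives have a fitted effect of over 15% in size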
Target sequence (Q14974 whole entry, looked up): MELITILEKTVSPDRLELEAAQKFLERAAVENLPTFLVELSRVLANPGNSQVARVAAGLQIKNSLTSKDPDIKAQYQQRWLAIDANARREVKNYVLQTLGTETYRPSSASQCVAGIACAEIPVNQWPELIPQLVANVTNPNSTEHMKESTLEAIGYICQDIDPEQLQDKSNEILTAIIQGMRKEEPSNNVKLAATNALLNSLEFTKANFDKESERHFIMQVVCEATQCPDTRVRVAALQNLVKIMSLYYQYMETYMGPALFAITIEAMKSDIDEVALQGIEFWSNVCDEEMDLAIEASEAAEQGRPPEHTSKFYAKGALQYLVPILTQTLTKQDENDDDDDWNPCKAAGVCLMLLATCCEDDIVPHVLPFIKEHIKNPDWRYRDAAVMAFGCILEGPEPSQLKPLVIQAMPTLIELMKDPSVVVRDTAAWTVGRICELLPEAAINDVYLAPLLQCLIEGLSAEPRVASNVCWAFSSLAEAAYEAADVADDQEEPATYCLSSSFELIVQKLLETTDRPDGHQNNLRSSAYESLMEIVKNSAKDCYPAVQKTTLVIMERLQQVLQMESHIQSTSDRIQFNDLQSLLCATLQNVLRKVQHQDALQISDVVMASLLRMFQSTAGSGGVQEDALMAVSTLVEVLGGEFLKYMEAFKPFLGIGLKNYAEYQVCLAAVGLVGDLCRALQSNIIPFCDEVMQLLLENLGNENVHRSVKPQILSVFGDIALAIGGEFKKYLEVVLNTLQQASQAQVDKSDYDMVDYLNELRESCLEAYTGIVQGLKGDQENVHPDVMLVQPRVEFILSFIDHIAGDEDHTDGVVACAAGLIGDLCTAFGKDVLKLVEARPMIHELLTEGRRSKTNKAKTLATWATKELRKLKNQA
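Inhibition scored from the CFP 486 nm/YFP 530 nm FRET ratio 45 min after adding 0.125 microM importin beta to 50 nM Rango biosensor preincubated 5 min with compound (room temperature, PBS with DTT, Tween-20, BSA). No-importin wells as positive control.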
miR-21 reporter: raises the signal of a miR-21 reporter | HeLa miR-21 FLuc reporter, luciferase, 48 h | Potency, µM (titrated, usually from 38.3 µM), for inactives: at the highest dose reporter change, positive = more light | 340,000 tested, under 10 active | AID 2288; active = well fitted rising curve with a large enough effect; inconclusive = small, poorly fitted or top-dose-only effect; inactive = no such curve, though single readings can be large or run the other way;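 further: % of control where 0% means no effect; miR-21 action dims this reporter so a rising signal means less miR-21 action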
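HeLa miR-21-FLuc reporter line, endogenous miR-21; 2000 cells/well in DMEM/10% FBS; compound titration up to ~40uM final, 48 h, 37 degree Celsius; luciferase detection reagent, 15 min lysis, CCD luminescence.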
An asterisk follows results filed as active; u = inconclusive; x = no result given. Some of the compounds tested; the hit share may differ from the screen's.

| GLA inh pH 4.5 | Rango release inh | Rango-impB inh | miR-21 reporter | structure |
| --- | --- | --- | --- | --- |
| 10 | -11% | 1.2% | -40% | CCOC(=O)c1ccc(Nc2ncnc3c2cnn3C)cc1 |
| x | 4% | -1.2% | -4% | CC(C)(C)c1ccc(OCC(O)CN2CCN(c3ccccn3)CC2)cc1 (stereo unspecified) |
| 4 | 12% | 0.2% | -11% | O=C(CSc1nc2sc3c(c2c(=O)n1-c1ccccc1)CCCC3)NCc1ccco1 |
| 0 | 9% | u | 8% | COc1cccc(/C=N/Nc2ncnc3c2ncn3Cc2ccccc2)c1O |
| 2 | 2% | -3.5% | 1% | Cc1cc(C)n(-c2nc3ccccc3nc2NCCc2ccccc2)n1 |
| 2 | -11% | 2.5% | -32% | CCOc1ccc2nc(SCC)[nH]c2c1 |
| x | -2% | 2.1% | -5% | CCOC(=O)N1CCN(Cc2nnc(-c3ccccc3Cl)o2)CC1 |
| 0 | x | x | -1% | Cc1ccc(NC2=NC(c3ccco3)n3c(nc(C)cc3=O)N2)c(C)c1 (stereo unspecified) |
| 3 | 11% | 5.3% | 3% | COCC(=O)N(Cc1nc2sc(C)c(C)c2c(=O)[nH]1)C1CCCCC1 |
| x | 5% | -2.2% | -18% | COc1ccc(NC(=O)CCc2c(C)nn(-c3ccc(N4CCOCC4)nn3)c2C)cc1 |

(list continues)
| GLA inh pH 4.5 | Rango release inh | Rango-impB inh | miR-21 reporter | structure |
| --- | --- | --- | --- | --- |
| -8 | 5% | 1.6% | -11% | CC(=O)N1CN(C2CCCC2)Cc2c1sc1c2CCCC1 |
| 4 | -2% | 3.2% | 2% | O=C(NCCO)c1ccc(Cl)c(Cl)c1 |
| 4 | -8% | -5.0% | -5% | O=C(CCn1c(=O)oc2ccccc21)N1CCN(c2ccc(F)cc2)CC1 |
| -8 | -19% | -0.7% | -1% | COc1ccc(C)cc1NC(=O)COC(=O)C1CC1 |
| 5 | -5% | 1.2% | 0% | CCCOC(=O)C1C2C=CC(C3CC23)C1C(=O)OCC(=O)c1ccccc1 (stereo unspecified) |
| 0 | -8% | -3.1% | 23% | CC1CCN(c2nc3ccc(C(=O)O)cc3s2)CC1 |
| x | -3% | -0.8% | x | O=C(Nc1cccc(F)c1)C1CCCCC1 |
| x | 4% | u | 4% | CCCn1c(=O)[nH]c(=O)c2c1nc(-c1ccc(C(F)(F)F)cc1)n2CCOC |
| -10 | -5% | -0.3% | 1% | Cc1onc(-c2ccccc2Cl)c1C(=O)NCc1ccc(S(N)(=O)=O)cc1 |
| -6 | -3% | 1.9% | -1% | CCCOn1c(-n2nc(C)cc2C)nc2ccccc2c1=O |

Single values from the results shown.
CC1CCN(c2nc3ccc(C(=O)O)cc3s2)CC1 @ GLA inh pH 4.5 = 0
O=C(CCn1c(=O)oc2ccccc21)N1CCN(c2ccc(F)cc2)CC1 @ Rango release inh = -8%

(more compounds)
| GLA inh pH 4.5 | Rango release inh | Rango-impB inh | miR-21 reporter | structure |
| --- | --- | --- | --- | --- |
| x | -2% | -1.3% | 3% | CC(C)[C@H](NC(=O)c1c(F)cccc1F)C(=O)N1CCN(c2ccc(F)cc2)CC1 |
| x | -12% | 0.0% | 11% | Cc1cc(C(=O)Nc2cccc(NC(=O)c3ccco3)c2)ccc1[N+](=O)[O-] |
| 1 | -4% | 1.5% | -4% | COc1cc(C(=O)O)cc(OC)c1OCc1cc(C(=O)O)oc1C |
| 3 | 3% | -1.7% | -9% | Cc1cc(C)nc(-n2nc(C)cc2NC(=O)CN2CCCC(C)C2)n1 (stereo unspecified) |
| x | -1% | -3.8% | x | c1ccc(OCCSc2ncnc3nc[nH]c23)cc1 |
| -3 | 6% | 3.2% | -8% | CCCCc1c(C)nc2ccc(C)cc2c1SCCC(=O)O |
| -15 | -1% | 4.1% | -32% | CCOc1cccc(/C=C2\NC(=S)N(c3ccccc3)C2=O)c1O |
| 3 | -2% | 0.7% | -11% | Cc1ccc(C(=O)Nc2cccc(C(=O)O)c2)cc1 |
| -20 | -3% | 2.2% | -52% | CCOC(=O)c1cccc(NC(=O)c2cncc(Br)c2)c1 |
| x | u | u | x | O=Cc1ccc(-c2cccs2)s1 |

Whole records from above. Screens in order: GLA inh pH 4.5 | Rango release inh | Rango-impB inh | miR-21 reporter
Results for CCOc1cccc(/C=C2\NC(=S)N(c3ccccc3)C2=O)c1O → -15 | -1% | 4.1% | -32%
Results for CC(C)[C@H](NC(=O)c1c(F)cccc1F)C(=O)N1CCN(c2ccc(F)cc2)CC1 → x | -2% | -1.3% | 3%
Results for Cc1ccc(C(=O)Nc2cccc(C(=O)O)c2)cc1 → 3 | -2% | 0.7% | -11%
Results for c1ccc(OCCSc2ncnc3nc[nH]c23)cc1 → x | -1% | -3.8% | x
Results for CCCCc1c(C)nc2ccc(C)cc2c1SCCC(=O)O → -3 | 6% | 3.2% | -8%

(list continues)
| GLA inh pH 4.5 | Rango release inh | Rango-impB inh | miR-21 reporter | structure |
| --- | --- | --- | --- | --- |
| x | 14% | 1.0% | x | O=C(NCC1CC1)c1onc(CSc2ccc(F)c(F)c2)c1C(=O)NCC1CC1 |
| 0 | 2% | -0.2% | -8% | CC1Oc2ccccc2N(Cc2cccnc2)C1=O (stereo unspecified) |
| -2 | u | u | -22% | O=C(COC(=O)c1ccccc1NC(=O)c1ccco1)Nc1ccc2c(c1)OCO2 |
| 5 | 0% | -0.3% | -65% | COc1ccc(-c2nc(-c3cccc(C)c3)no2)cc1OC |
| -7 | 1% | -0.4% | -66% | C/C(=N\Nc1cccc(C(=O)O)c1)c1ccc(Cl)s1 |
| 0 | 23% | 0.3% | -16% | O=c1cc(N2CCCCC2)c2ccccc2o1 |
| 8 | 31% | 0.1% | -6% | COc1cccc(OC)c1OCCCCn1cnc2ccccc2c1=O |
| -1 | -1% | 3.6% | 20% | Cc1nc2c(c3c1[nH]c1ccccc13)C(O)CC(C)(C)C2 (stereo unspecified) |
| x | 13% | 4.9% | -1% | O=C(Cn1c(=O)oc2ccccc21)Nc1ccccc1Cl |
| x | -2% | 0.3% | x | CC(=O)Nc1ccc(C(=O)Nc2cccc(S(=O)(=O)NC3=NCCC3)c2)cc1 |

A draw from above in order of heavy-atom count, largest number first.
| GLA inh pH 4.5 | Rango release inh | Rango-impB inh | miR-21 reporter | structure |
| --- | --- | --- | --- | --- |
| 8 | 31% | 0.1% | -6% | COc1cccc(OC)c1OCCCCn1cnc2ccccc2c1=O |
| 5 | 0% | -0.3% | -65% | COc1ccc(-c2nc(-c3cccc(C)c3)no2)cc1OC |
| -7 | 1% | -0.4% | -66% | C/C(=N\Nc1cccc(C(=O)O)c1)c1ccc(Cl)s1 |

Other compounds follow:
| GLA inh pH 4.5 | Rango release inh | Rango-impB inh | miR-21 reporter | structure |
| --- | --- | --- | --- | --- |
| x | 8% | 1.2% | 1% | COC(=O)c1cc(S(=O)(=O)NCc2ccc3c(c2)OCO3)c[nH]1 |
| x | -13% | 0.0% | -1% | CN(Cc1ccccc1)S(=O)(=O)c1ccc(OCC(=O)NCc2cccnc2)cc1 |
| -2 | -6% | 0.2% | -33% | c1ccc(-n2ncc3c(NCc4ccc5c(c4)OCO5)ncnc32)cc1 |
| -1 | u | u | -6% | CNc1ccc(Br)cc(C(=O)/C=C/c2cccc(Cl)c2Cl)c1=O |
| -4 | 10% | 4.5% | 22% | CCc1nc(SCC(=O)N2CCN(c3ccccc3)CC2)c2oc3ccccc3c2n1 |
| x | 8% | -0.6% | x | Cc1ccc(S(=O)(=O)N2CCC(C(=O)Nc3ccc(N4CCOCC4)cc3)CC2)cc1C |
| x | u | u | -11% | Cc1ccc(/C=N/NC(=O)c2cc3ccccc3cc2O)o1 |
| x | 4% | -5.0% | x | CC(=O)c1c(C)[nH]c(C(=O)COC(=O)CCNS(=O)(=O)c2ccc(C)c(C)c2)c1C |
| x | 8% | -0.3% | 0% | CCCNC(=O)COc1coc(CN2CCN(Cc3ccccc3)CC2)cc1=O |
| x | 1% | -2.8% | -1% | CC1CC(C)CN(S(=O)(=O)c2cccc3nsnc23)C1 (stereo unspecified) |
| -2 | -12% | 1.3% | -2% | O=C(NCCN1C(=O)CSC1=O)C1CC(=O)N(c2ccccc2)C1 (stereo unspecified) |

Three entries already listed, sorted by their value in GLA inh pH 4.5, lowest first.
| GLA inh pH 4.5 | Rango release inh | Rango-impB inh | miR-21 reporter | structure |
| --- | --- | --- | --- | --- |
| -4 | 10% | 4.5% | 22% | CCc1nc(SCC(=O)N2CCN(c3ccccc3)CC2)c2oc3ccccc3c2n1 |
| -2 | -12% | 1.3% | -2% | O=C(NCCN1C(=O)CSC1=O)C1CC(=O)N(c2ccccc2)C1 (stereo unspecified) |
| -1 | u | u | -6% | CNc1ccc(Br)cc(C(=O)/C=C/c2cccc(Cl)c2Cl)c1=O |
